Source: PubChem
HNF4A DNA FP: change in binding of human HNF4 alpha to DNA; P41235; HNF4a-FITC DNA binding, fluorescence polarization, 1 h; activity change, % at 10 µM; actives 0.3% (n = 360,000); in the data active means activity change above about 30%, passing the limit was not always enough;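 further: controls were the assay level and a saturating level of protein; the project sought stronger binding though the title names inhibitors; some compounds called inactive have numbers as strong as hits; positive values seem to mean higher polarization but the record does not say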
Target sequence (P41235 whole entry, looked up): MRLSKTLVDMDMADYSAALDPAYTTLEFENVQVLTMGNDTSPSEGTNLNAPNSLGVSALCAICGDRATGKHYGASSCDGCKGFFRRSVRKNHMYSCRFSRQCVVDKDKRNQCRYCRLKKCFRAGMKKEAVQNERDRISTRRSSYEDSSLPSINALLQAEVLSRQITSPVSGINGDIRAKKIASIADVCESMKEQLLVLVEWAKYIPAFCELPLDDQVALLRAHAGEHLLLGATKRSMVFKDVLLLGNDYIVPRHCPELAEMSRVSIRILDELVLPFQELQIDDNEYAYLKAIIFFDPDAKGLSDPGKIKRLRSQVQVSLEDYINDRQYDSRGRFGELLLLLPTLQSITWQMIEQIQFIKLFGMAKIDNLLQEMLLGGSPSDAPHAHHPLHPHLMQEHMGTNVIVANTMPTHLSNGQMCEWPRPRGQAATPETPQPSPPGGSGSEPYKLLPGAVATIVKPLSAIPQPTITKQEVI
Beta2AR agonist: activates human beta-2 adrenergic receptor causing internalization; Am2.2-beta2AR cells, FAP receptor internalization, flow cytometry; reference of the scale not given here; actives 0.43% (n = 340,000); P07550; response, % (concentration not given with the values);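 active means response above a set limit, near 3 SD of response in nonfluorescent compounds, cut at about 42% in these data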;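 further: stock transfer was 100 nL into about 11 µL; a reference agonist was the positive control; negative values mostly stem from fluorescent compounds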
Target sequence (P07550 whole entry, looked up): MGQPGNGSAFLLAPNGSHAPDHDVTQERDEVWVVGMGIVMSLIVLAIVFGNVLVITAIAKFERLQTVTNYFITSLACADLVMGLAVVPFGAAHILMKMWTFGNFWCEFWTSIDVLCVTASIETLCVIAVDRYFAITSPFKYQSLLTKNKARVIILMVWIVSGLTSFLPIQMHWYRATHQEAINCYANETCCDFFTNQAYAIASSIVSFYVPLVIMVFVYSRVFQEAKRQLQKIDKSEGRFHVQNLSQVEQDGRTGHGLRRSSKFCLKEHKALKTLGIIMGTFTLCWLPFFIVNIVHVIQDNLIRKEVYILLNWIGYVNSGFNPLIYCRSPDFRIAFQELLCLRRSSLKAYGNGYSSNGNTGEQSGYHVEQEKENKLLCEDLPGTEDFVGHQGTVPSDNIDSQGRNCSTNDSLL
LANA-H2A inh: blocks KSHV LANA binding to histone H2A/H2B. Q9QR71. cell-free LANA-H2A/H2B peptide, fluorescence polarization. inhibition, % (concentration not given with the values). actives 0.6% (n = 320,000). AID 2629; in the data active means inhibition mostly above about 10%, no sharp cut-off; inactive means mostly below about 6.7%;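 further: stock transfer was 7.5 nL into about 10 µL; 0% = median of vehicle wells and 100% = median of positive control wells; one replicate is shown; the record names a cut of 25% in any replicate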
ALR inh: inhibitors of human sulfhydryl oxidase ALR; actives 3.8% (n = 290,000); P55789; purified ALR, DTT oxidation, H2O2 HRP-luminol luminescence; inhibition, % (test concentration not listed);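 active means mean and each replicate at 75% or more; inconclusive means only one of the two met; inactive means neither met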;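 further: stock transfer was 7.5 nL into about 7.5 µL; 0% = neutral wells and 100% = wells with inactivated enzyme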
Target sequence (P55789 whole entry, looked up): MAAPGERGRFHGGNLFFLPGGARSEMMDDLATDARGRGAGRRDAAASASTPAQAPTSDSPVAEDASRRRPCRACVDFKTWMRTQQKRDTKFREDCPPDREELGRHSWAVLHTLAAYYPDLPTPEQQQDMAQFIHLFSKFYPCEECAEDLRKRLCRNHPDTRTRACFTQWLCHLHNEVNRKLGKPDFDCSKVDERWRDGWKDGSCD
RanGTP-Impb inh: inhibitors of RanGTP-importin-beta interaction, primary screen, biochemical, FRET, CFP-Ran, YFP-importin-beta, homogeneous | cell-free CFP-Ran/YFP-importin-beta FRET ratio | inhibition, % (no concentration beside the values) | actives 1.1% (n = 300,000);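 active means most replicates above 15%; inconclusive means exactly half above 15%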;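 further: 0% = DMSO wells and 100% = Ran loaded with GDP instead of GTP; wells of about 40 µL received 100 nL stock; the first replicate is given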
Vif A3G: inhibitors of Vif binding to APOBEC3G peptide, primary screen, biochemical, TR-FRET, GST-Vif 1-94, biotin-A3G peptide, dose response retest (AID 1117319) | TR-FRET GST-Vif / biotin-A3G peptide binding; higher % means a stronger effect; test concentration not given here; strong numbers were not always called active | one-dose inhibition, %; IC50 in µM for titrated hits | actives 0.57% (n = 260,000);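 active means above the screen mean plus three standard deviations and confirmed in dose response; inconclusive means results disagree or hit not tested in dose response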;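 further: Vif residues 1-94 fused to GST binding biotinylated APOBEC3G peptide 110-148; 0% = full assay without inhibitor and 100% = GST in place of GST-Vif; retest series ran down from 100 µM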
Calb FLC: affects C. albicans growth with fluconazole. actives 0.57% (n = 300,000). C. albicans CaCi-2 (fluconazole-resistant clinical isolate) + fluconazole, Alamar Blue growth, 48 h. AID 1979. growth inhibition, % (concentration not given with the values);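 active means most replicates above 75%; inconclusive means exactly half above 75%; inactive means most below 75%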;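 further: all wells also contain fluconazole at 8 µg/ml as a sub-toxic cotreatment; 0% = median of DMSO wells and 100% = median of geldanamycin control wells; wells of about 8 µL received 7.5 nL stock; the first replicate is given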
The depositor's hits bear a star; ? = inconclusive; . = no result given.

item	smiles	ALR inh	Beta2AR agonist	Vif A3G	LANA-H2A inh	HNF4A DNA FP	RanGTP-Impb inh	Calb FLC
1	CC(C)c1ccc2[nH]c3nc(SCC(=O)N4CCOCC4)nnc3c2c1	-2	-3	?	0.6	2.3	3.6	-14
2	O=C(N/N=C/c1cccnc1)c1ccccc1OCc1ccc(Br)cc1	-6	-24	-13%	-2.4	-1.5	6.0	8
3	C/C(CC(=O)Nc1ccc(C)c(Cl)c1)=N\NC(=O)c1ccco1	8	-13	23%	-6.7	-4.9	-3.9	?
4	O=c1oc2ccccc2cc1N1CCOCC1	-20	-8	-2%	3.9	3.5	1.9	0
5	O=C(CC(=O)c1ccccc1)CC(O)(C=Cc1ccccc1)c1ccccc1 (centres undefined)	.	-3	-3%	.	2.5	.	.
6	Cc1ccc(NC(=O)CSc2nnc(-c3ccccc3C)o2)cc1C	3	-2	7%	-3.1	0.9	3.8	-14
7	COC(=O)c1ccc(N2CCN(C(C)=O)CC2)c(NC(=O)COc2ccccc2C)c1	-6	1	1%	2.3	1.2	?	-18
8	N#C/C(=C\c1ccc(-c2cccc([N+](=O)[O-])c2)o1)C(=O)N1CCOCC1	-2	5	-4%	1.1	6.3	1.0	6
9	COc1cccc(/C=N/NC(=O)CSc2nnc(C)n2-c2ccccc2)c1OC	-52	-10	2%	4.2	-3.2	0.4	?
10	CC(=O)Oc1cc(O)c2c(=O)c(OC(C)=O)c(-c3ccc(OC(C)=O)c(OC(C)=O)c3)oc2c1	82*	16	.	1.1	-2.7	1.0	-12
11	Cc1ccc(/C=N\NC(=O)c2cncc(Br)c2)o1	-1	-12	1%	0.3	-2.4	-1.4	-6
12	COC(=O)[C@H](C)NC(=O)Nc1cccc(C)c1	4	-1	-4%	1.2	3.0	-0.3	-8
13	Cc1onc(-c2ccccc2)c1C(=O)OCc1nnc(-c2ccccc2)o1	-3	-11	-8%	1.1	1.6	0.9	10
14	O=C(c1ccc(F)cc1)N(Cc1ccco1)C1CCS(=O)(=O)C1 (centres undefined)	3	3	-8%	7.6	-0.3	-0.6	-3
15	CC(C)C(c1nnnn1Cc1ccco1)N1CCN(C2CCCC2)CC1 (centres undefined)	-4	-6	18%	-0.4	-1.1	7.3	-1
16	CC1CC(C)CN(c2nc(N(C)c3ccccc3)nc(N)c2[N+](=O)[O-])C1 (centres undefined)	-7	7	-2%	-2.5	-3.0	-1.3	13
17	COc1ccc(N(C)C(=O)Cn2c(=O)oc3ccccc32)c(OC)c1	-18	1	2%	3.3	0.9	0.0	-4
18	CC1(C)COC(/C=C/c2cccc([N+](=O)[O-])c2)=N1	-1	17	.	-1.6	-0.6	-2.7	?
19	O=C(CSc1nnc(-c2ccccn2)o1)Nc1ccccc1Cl	99*	20	.	-6.1	-2.5	-1.8	-13
20	O=C(OCc1cc(=O)n2ccsc2n1)c1ccc(O)cc1O	10	-7	?	1.0	-4.8	.	.

Part of the list above in a different format:
8: N#C/C(=C\c1ccc(-c2cccc([N+](=O)[O-])c2)o1)C(=O)N1CCOCC1
- ALR inh: -2
- Beta2AR agonist: 5
- Vif A3G: -4%
- LANA-H2A inh: 1.1
- HNF4A DNA FP: 6.3
- RanGTP-Impb inh: 1.0
- Calb FLC: 6
9: COc1cccc(/C=N/NC(=O)CSc2nnc(C)n2-c2ccccc2)c1OC
- ALR inh: -52
- Beta2AR agonist: -10
- Vif A3G: 2%
- LANA-H2A inh: 4.2
- HNF4A DNA FP: -3.2
- RanGTP-Impb inh: 0.4
- Calb FLC: ?
10: CC(=O)Oc1cc(O)c2c(=O)c(OC(C)=O)c(-c3ccc(OC(C)=O)c(OC(C)=O)c3)oc2c1
- ALR inh: 82*
- Beta2AR agonist: 16
- Vif A3G: .
- LANA-H2A inh: 1.1
- HNF4A DNA FP: -2.7
- RanGTP-Impb inh: 1.0
- Calb FLC: -12
11: Cc1ccc(/C=N\NC(=O)c2cncc(Br)c2)o1
- ALR inh: -1
- Beta2AR agonist: -12
- Vif A3G: 1%
- LANA-H2A inh: 0.3
- HNF4A DNA FP: -2.4
- RanGTP-Impb inh: -1.4
- Calb FLC: -6

Pulled one by one from the list above:
item	smiles	ALR inh	Beta2AR agonist	Vif A3G	LANA-H2A inh	HNF4A DNA FP	RanGTP-Impb inh	Calb FLC
11	Cc1ccc(/C=N\NC(=O)c2cncc(Br)c2)o1	-1	-12	1%	0.3	-2.4	-1.4	-6
17	COc1ccc(N(C)C(=O)Cn2c(=O)oc3ccccc32)c(OC)c1	-18	1	2%	3.3	0.9	0.0	-4

Continued:
item	smiles	ALR inh	Beta2AR agonist	Vif A3G	LANA-H2A inh	HNF4A DNA FP	RanGTP-Impb inh	Calb FLC
21	COc1cccc(C(O)c2cnc(C(C)C)n2C)c1 (centres undefined)	.	-4	1%	-5.5	6.0	-2.7	-1
22	O=C(Nc1sc2c(c1C(=O)O)CCCCC2)c1cccs1	32	3	-13%	-0.3	-4.4	2.8	49
23	CC1CC(C)CN(C(=O)C(C)N(C)CC(=O)Nc2ccccc2Cl)C1 (centres undefined)	0	3	18%	-6.5	4.2	.	-15
24	COc1ccc(CN(C(=O)CSc2nnc(-c3ccc(OC)c(OC)c3)o2)c2ccc(F)cc2)cc1	-3	-3	3%	0.8	-3.1	-4.3	-3
25	CN(Cc1cccs1)C(=O)c1ccc(Cl)c(S(=O)(=O)N2CCCCCC2)c1	-1	-4	4%	-0.1	-0.6	.	.
26	CCC(=O)Nc1ccc(-c2cc3ccccc3oc2=O)cc1	1	4	-5%	3.8	1.8	1.3	-7
27	COc1cccc(/C=N/NC(=O)CCn2nnc3ccccc32)c1	19	-6	.	1.9	2.1	4.4	3
28	O=S(Cc1ccc(Cl)cc1)c1ccccc1 (centres undefined)	.	16	-12%	.	-5.8	.	.
29	NC(=O)CC(NC(=O)c1ccc(Br)cc1)c1ccc(NC2CCCCCC2)c([N+](=O)[O-])c1 (centres undefined)	-9	-2	.	3.6	25	-6.6	-14
30	CCOCCn1c(=O)c2c(nc3n2CCN3c2ccc(CC)cc2)n(C)c1=O	.	2	.	1.3	-1.0	7.4	-1
31	CC(=O)Nc1ccc(S(=O)(=O)NCCc2cn3nc(C)c(C)nc3n2)cc1	-19	-1	.	0.1	0.1	5.2	-7
32	Cc1ccc(NC(=O)COC(=O)c2ccc(=O)n(Cc3ccccc3)n2)cc1F	.	-1	1%	2.8	0.5	0.3	-4
33	COc1ccccc1N1CCN(CC(=O)Nc2c(C)n(C)n(-c3ccccc3)c2=O)CC1	5	8	-5%	0.8	-2.9	-1.4	-7
34	CN(Cc1ccccc1)C(=O)c1ccc(NC2=NC3CS(=O)(=O)CC3S2)cc1 (centres undefined)	-1	-3	.	-3.4	-1.3	2.4	-13
35	Cc1cccc(N=Cc2cc3c(cc2[N+](=O)[O-])OCO3)c1	.	-1	?	-2.4	0.4	0.9	?
36	N#Cc1c(NC(=O)CSc2nc(N)cc(=O)[nH]2)sc2c1CCCC2	9	-3	23%	-0.2	-3.2	-2.0	-8
37	CCOC(=O)C1CCCN(CC(O)COc2ccccc2C(C)=O)C1 (centres undefined)	0	-1	3%	-4.2	-2.2	8.8	0
38	CC(=O)N1CCN(Cc2cc(=O)n3cc(Cl)c(C)c(Cl)c3n2)CC1	-31	-9	8%	8.3	3.9	?	-4
39	C=CCNC(=O)/C(=C\c1ccc([N+](=O)[O-])cc1)NC(C)=O	6	-8	13%	0.8	-1.6	-0.2	-6
40	Cc1ccc(OCC(=O)N2CCCCCCC2)cc1	-7	-4	1%	-3.1	0.7	1.3	3
41	NC(=O)COC(=O)c1cccc(S(=O)(=O)N2CCCCC2)c1	-45	0	12%	2.6	-1.2	4.7	5
42	CC(=O)N(CCO)Cc1cc2cc(C)cc(C)c2[nH]c1=O	5	4	3%	-4.5	-0.3	5.1	-19
43	COCCNC(=O)C1CC2Cn3c(nc4cc(Cl)c(Cl)cc43)C2N1C (centres undefined)	.	-6	.	0.1	-0.2	-0.3	-3
44	Cc1ccsc1C(=O)N1CCCC(CCC(=O)NCc2ccc(F)c(F)c2)C1 (centres undefined)	.	-1	1%	5.6	-0.1	3.9	-8
45	Cc1ccc(C)c2[nH]c(=O)c(CCNC(=O)c3ccc4c(c3)OCO4)cc12	0	-8	-7%	-0.6	-1.7	5.7	1
46	COc1cccc(/C=N/Nc2ccc([N+](=O)[O-])cn2)c1O	-6	20	2%	1.4	3.2	4.0	97*
47	COc1ccc(CN(CC2CCC(C(=O)O)CC2)C(=S)Nc2ccccc2C)cc1 (centres undefined)	-4	-4	-5%	2.3	2.6	-0.6	1
48	CCOc1cc(NS(=O)(=O)c2ccc(OC)cc2)c(OCC)cc1NC(=O)c1ccco1	-27	-24	6%	-1.7	-0.8	8.7	6
49	CCOc1ccc(C(=O)OCC(=O)NC2CCCC2)cc1OCC	6	3	-2%	-3.7	1.2	-4.7	-5
50	Cc1noc(C)c1CSc1ccccc1C(=O)O	-1	-9	.	-0.1	6.9	2.8	-6
51	Nc1c(-c2ccccc2Cl)cnn1-c1cccc([N+](=O)[O-])c1	12	6	69%	3.4	1.2	-1.9	0
52	CC(C)(C)c1ccccc1NC(=O)c1cc(-c2ccncc2)nc2ccccc12	.	12	-8%	-0.7	7.9	.	.
53	COc1ccc(N2CCN(CCCNC(=O)C3CCC(CNc4nc(=S)[nH]c5ccccc45)CC3)CC2)cc1 (centres undefined)	69	7	-38%	-270	4.9	-2.9	19
54	CCOc1ccc(-c2nnc3ccc(SCc4ccc(C(=O)OC)o4)nn23)cc1	-4	4	?	3.7	4.1	-0.2	0
55	CCCN1CCN(CCCNC(=O)CN2C(=O)c3cccnc3Oc3ccc(C)cc32)CC1	-10	2	1%	-0.1	1.2	5.0	11
56	O=S(=O)(Cc1ccc(Cl)cc1)N1CCCCCC1	-8	7	3%	9.5	-1.0	-1.7	-4
57	O=[N+]([O-])c1ccc(C2OCCO2)cc1CS(=O)(=O)c1ccccc1	-2	3	.	5.2	2.7	-0.6	-9
58	COc1ccc(NC(=O)C2CCC(=O)N2)cc1 (centres undefined)	-7	5	4%	-2.4	1.0	3.2	2
59	C=CCn1c(SCC(=O)N(C(C)CC)C2CCS(=O)(=O)C2)nc2ccccc2c1=O (centres undefined)	.	0	0%	.	-2.6	.	.
60	O=C(O)c1cccc(Cn2c(Cl)c(/C=N/NC(=O)c3ccccc3O)sc2=O)c1	14	-2	9%	15*	-0.4	-0.7	7
61	CS(=O)(=O)c1ccc2nc(NC(=O)CCNC(=O)c3ccccc3Cl)sc2c1	-5	9	.	-1.8	-2.1	.	.
62	Cc1ccc(C)c(C(=O)CCC(=O)Nc2cccnc2)c1	3	1	1%	0.9	-0.3	-3.6	3
63	O=c1[nH]c2ccc(Cl)cc2[nH]1	.	0	5%	.	-0.5	.	.
64	CC1CCCN(S(=O)(=O)c2cccc(C(=O)NCC3CCCO3)c2)C1 (centres undefined)	-17	-2	-2%	2.1	2.9	.	.
65	CCOC(=O)C(NCc1ccc2c(c1)OCO2)(NC(=O)c1ccccc1)C(F)(F)F (centres undefined)	-6	7	-7%	-2.7	1.9	-2.3	0
66	Cc1cc(C)c2sc(N(CCCN(C)C)C(=O)c3ccc(Br)s3)nc2c1	-4	38	-60%	7.6	2.5	2.0	-10
67	Cn1nc(-c2ccccc2)c(CN2CCN(c3ncccn3)CC2)c1Cl	-4	-16	7%	3.6	-3.3	1.2	-12
68	CCN(CC)S(=O)(=O)c1ccc(N2CCN(CCOc3ccc(OC)cc3)CC2)nc1	1	1	?	3.1	2.4	2.5	1
69	O=C(Nc1ccc(-n2cnnn2)cc1)C1CCCCC1	-19	-6	1%	13*	3.1	-1.6	2
70	Cc1ccc(S(=O)(=O)N(C)c2ccc(OC(=O)CN3C(=O)NC4(CCCC4)C3=O)cc2)cc1	11	0	4%	-3.2	6.3	3.9	-17
71	O=C(N/C=C/c1ccccc1)c1ccccc1	5	-1	.	-1.3	0.5	2.5	-1
